ALR inh = inhibitors of human sulfhydryl oxidase ALR. hit rate 3.8% among 290,000. inhibition, % (no concentration beside the values). purified ALR, DTT oxidation, H2O2 HRP-luminol luminescence. P55789;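 active = mean and each replicate at 75% or more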;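 also: stock transfer was 7.5 nL into about 7.5 µL; 0% = neutral wells and 100% = wells with inactivated enzyme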
Target sequence (P55789 whole entry, looked up): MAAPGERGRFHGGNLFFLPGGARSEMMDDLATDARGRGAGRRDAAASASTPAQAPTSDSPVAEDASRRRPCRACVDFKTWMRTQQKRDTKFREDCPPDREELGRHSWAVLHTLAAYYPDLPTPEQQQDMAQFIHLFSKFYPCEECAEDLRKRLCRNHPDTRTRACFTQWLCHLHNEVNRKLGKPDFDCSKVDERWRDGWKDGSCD
Beta2AR agonist = agonists of human beta-2 adrenergic receptor inducing internalization. response, % (concentration not given with the values). AID 504454. Am2.2-beta2AR cells, FAP receptor internalization, flow cytometry; reference of the scale not given here. hit rate 0.43% among 340,000. P07550;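 active = response above a set limit, near 3 SD of response in nonfluorescent compounds, cut at about 42% in these data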;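 also: stock transfer was 100 nL into about 11 µL; a reference agonist was the positive control; negative values mostly stem from fluorescent compounds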
Target sequence (P07550 whole entry, looked up): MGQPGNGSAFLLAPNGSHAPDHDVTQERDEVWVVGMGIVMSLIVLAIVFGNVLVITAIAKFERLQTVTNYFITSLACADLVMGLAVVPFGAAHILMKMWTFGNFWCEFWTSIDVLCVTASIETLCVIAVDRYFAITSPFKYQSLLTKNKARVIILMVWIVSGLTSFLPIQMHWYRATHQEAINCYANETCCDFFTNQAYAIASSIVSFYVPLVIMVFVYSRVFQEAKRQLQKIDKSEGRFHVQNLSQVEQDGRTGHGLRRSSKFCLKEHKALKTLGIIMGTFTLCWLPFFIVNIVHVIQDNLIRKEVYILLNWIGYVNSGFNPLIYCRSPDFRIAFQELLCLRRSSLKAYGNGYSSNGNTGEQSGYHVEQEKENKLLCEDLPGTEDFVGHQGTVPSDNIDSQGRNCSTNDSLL
FGF22 binding = FGF22 (human) thermal shift binding | recombinant FGF22 thermal shift, SYPRO orange fluorescence; percent of sucrose octasulfate shift, DMSO zero | calls only at 9.99 µM | hit rate 1.5% among 340,000;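 active = melting point raised past a set limit in the mean and every replicate; three in four hits are not shown here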
Ecoli growth = inhibitors of Escherichia coli growth. OD600 absorbance (no concentration beside the values). hit rate 0.21% among 330,000. OD600, 23 h; stronger effect = lower value;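 active = OD600 absorbance below the run mean of sample wells minus 3.6 SD, in any replicate, cut at about 0.56 in these data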;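 also: stock transfer was 300 nL into about 60 µL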
UCH37 DUB inh = inhibitors of human deubiquitinating enzyme UCH37. Q9Y5K5. purified proteasome/UCH37, Ub-AMC cleavage fluorescence. inhibition, % (test concentration not listed). hit rate 0.33% among 330,000;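 active = mean of two replicates above 20%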;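 also: 0% = compound-free wells with enzyme and 100% = wells lacking proteasome; stock transfer was 100 nL into about 20 µL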
Target sequence (Q9Y5K5 whole entry, looked up): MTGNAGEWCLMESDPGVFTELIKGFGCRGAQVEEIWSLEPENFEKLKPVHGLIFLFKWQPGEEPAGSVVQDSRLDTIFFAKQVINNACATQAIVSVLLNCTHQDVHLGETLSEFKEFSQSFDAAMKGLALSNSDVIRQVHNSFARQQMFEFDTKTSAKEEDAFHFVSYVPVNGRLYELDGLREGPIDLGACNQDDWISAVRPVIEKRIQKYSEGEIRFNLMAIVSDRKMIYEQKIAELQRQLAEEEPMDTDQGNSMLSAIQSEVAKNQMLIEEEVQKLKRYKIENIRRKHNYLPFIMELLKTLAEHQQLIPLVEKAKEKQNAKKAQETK
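Signal – fluorescence, ex 355 nm, em 460 nm · System – Proteasome-bound UCH37 · Input – 0.15 nM proteasome as dispensed · Timing – 30 min preincubation with enzyme, 25 min cleavage at room temperature · Read-out basis – percent inhibition of cleavage signal versus uninhibited and no-proteasome wells · Medium – Tris-HCl pH 7.4 with ATP-MgCl2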
HNF4A DNA FP = change in binding of human HNF4 alpha to DNA | activity change, % at 10 µM | P41235 | hit rate 0.3% among 360,000 | HNF4a-FITC DNA binding, fluorescence polarization, 1 h; in the data active = activity change above about 30%, passing the limit was not always enough;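 also: controls were the assay level and a saturating level of protein; the project sought stronger binding though the title names inhibitors; some compounds called inactive have numbers as strong as hits; positive values seem to mean higher polarization but the record does not say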
LANA-H2A inh = blocks KSHV LANA binding to histone H2A/H2B; cell-free LANA-H2A/H2B peptide, fluorescence polarization; AID 2629; hit rate 0.6% among 320,000; inhibition, % (concentration not given with the values); in the data active = inhibition mostly above about 10%, no sharp cut-off; inactive = mostly below about 6.7%;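 also: stock transfer was 7.5 nL into about 10 µL; 0% = median of vehicle wells and 100% = median of positive control wells; one replicate is shown; the record names a cut of 25% in any replicate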
Starred values were filed as active, the others as inactive; i = inactive; . = no result given; + = active, no number. An excerpt; rates above refer to the full screens.

SMILES | ALR inh | Beta2AR agonist | FGF22 binding | Ecoli growth | UCH37 DUB inh | HNF4A DNA FP | LANA-H2A inh
O=C(NCCN1CCOCC1)C(=O)NCC1OCCCN1S(=O)(=O)c1cc(F)ccc1F (stereo unspecified) | 5 | 3 | i | 0.72 | -0.8 | -0.9 | 4.1
COc1ccc(NC(=O)COc2coc(CN3CCc4ccccc4C3)cc2=O)cc1 | 0 | 2 | i | 0.7 | 0.7 | 2.8 | -0.7
COc1ccccc1NC(=O)c1ccc(COc2ccccc2OC)cc1 | -23 | -3 | i | 0.68 | -1.6 | -2.0 | 2.0
COC(=O)c1ccc(CN(C(C)=O)c2ccccc2)o1 | 0 | 11 | . | 0.69 | 0.8 | 1.5 | -2.4
CCOC(=O)c1cc2c(nc1N)CCCC2 | 1 | -4 | i | 0.63 | -300 | 0.5 | -0.4
COC(=O)Cc1ccc(NC(=S)NC(C)(C)C)cc1 | -6 | 6 | i | 0.62 | 0.9 | 3.2 | 1.4
CCC1CCCCN1CCCNC(=O)CCC(=O)N1CCOc2ccccc21 (stereo unspecified) | -10 | 0 | i | 0.66 | 0.5 | 1.6 | -2.1
CN(C)Cc1cc(O)c(CN(C)C)cc1O | . | 3 | i | 0.64 | -1.1 | -2.3 | -0.8
CCn1c(CC(=O)Nc2ccc(F)cc2)nnc1SCC(=O)Nc1nncs1 | -4 | -5 | i | 0.65 | 3.8 | -2.6 | 2.4
O=C(Nc1cccnc1Cl)c1noc2c1CCc1ccccc1-2 | -8 | 7 | i | 0.72 | -0.3 | 0.9 | -0.8
O=C1OCCC1Sc1nnc(-c2ccc(Br)cc2)o1 (stereo unspecified) | -2 | 9 | . | 0.73 | 4.8 | -0.7 | -0.3
COc1ccccc1CN1CCNC(=O)C1CC(=O)NCC1CCOCC1 (stereo unspecified) | -5 | 6 | i | 0.73 | 1.0 | -2.6 | 4.9
COc1ccc(C(=O)OCCOc2cccc(Cl)c2)cc1S(=O)(=O)N1CCOCC1 | 1 | 5 | i | 0.72 | 2.1 | 2.2 | 2.8
COc1ccc2c(c1)[nH]c1c(=O)n(/N=C/c3ccc(OC)c(CN4CCCCC4)c3)cnc12 | -3 | -1 | i | . | . | 1.0 | -2.5
Cc1ccc(Nc2nnc(SCc3ccccc3)s2)cc1 | -13 | 6 | . | 0.74 | 1.3 | -0.4 | 0.0

Compound profiles, as listed above. Order of screens: ALR inh, Beta2AR agonist, FGF22 binding, Ecoli growth, UCH37 DUB inh, HNF4A DNA FP, LANA-H2A inh
Entry for COC(=O)c1ccc(CN(C(C)=O)c2ccccc2)o1 = 0, 11, ., 0.69, 0.8, 1.5, -2.4
Entry for COc1ccc(C(=O)OCCOc2cccc(Cl)c2)cc1S(=O)(=O)N1CCOCC1 = 1, 5, i, 0.72, 2.1, 2.2, 2.8
Entry for O=C(Nc1cccnc1Cl)c1noc2c1CCc1ccccc1-2 = -8, 7, i, 0.72, -0.3, 0.9, -0.8
Entry for COc1ccc2c(c1)[nH]c1c(=O)n(/N=C/c3ccc(OC)c(CN4CCCCC4)c3)cnc12 = -3, -1, i, ., ., 1.0, -2.5

New compounds follow:
SMILES | ALR inh | Beta2AR agonist | FGF22 binding | Ecoli growth | UCH37 DUB inh | HNF4A DNA FP | LANA-H2A inh
CC(C)CCN1CCN(Cc2cn[nH]c2C2CCCCC2)CC1CCO (stereo unspecified) | -28 | 3 | i | 0.68 | 1.4 | 5.3 | -1.5
COC(=O)c1cccc(NS(=O)(=O)c2ccc(OC)c(OC)c2)c1C | -2 | 12 | . | 0.65 | 5.0 | -1.0 | -1.1
Nc1n[nH]c(-c2ccccc2[N+](=O)[O-])n1 | 4 | -1 | i | 0.73 | 4.6 | -1.0 | -1.7
O=C(NCCc1cccc(F)c1)C1CCC(=O)N(CCCc2ccccc2)C1 (stereo unspecified) | -4 | 5 | i | 0.7 | 0.9 | -4.4 | 11
CCOC(=O)c1ccc(NC(=O)CN2CCN(CCN=CC3=C(O)CC(C)(C)CC3=O)CC2)cc1 | . | -16 | i | . | . | -0.9 | .
Nc1cc(=O)[nH]c(SCc2ccc(Cl)cc2)n1 | -1 | -1 | . | 0.67 | 10 | 0.2 | 0.9
COC(=O)C1=C(O)/C(=C\c2ccc(OCC(=O)Nc3ccc(OC)cc3)cc2)N=C1C | -1 | 15 | i | 0.72 | -0.1 | 1.6 | 6.3
COc1ccc(Cn2c3ccc(OC)cc3c3nc4ccccc4nc32)cc1 | -9 | 8 | . | 0.67 | 4.0 | -45 | 8.9
Cc1cc(NC(=O)CCSc2ccc(Cl)cc2)no1 | -3 | 4 | i | 0.68 | -1.3 | -0.6 | -4.1
O=C(CN1CCCN(S(=O)(=O)c2ccc(F)cc2)CC1)Nc1c(Cl)cccc1Cl | -5 | 1 | i | 0.73 | 2.3 | 1.7 | 9.0
CCN(CC)S(=O)(=O)c1ccc(C)c(C)c1 | -9 | -3 | . | 0.69 | -0.3 | 3.9 | 1.8
O=C1c2cccnc2C(O)N1Cc1cccs1 (stereo unspecified) | . | -5 | . | 0.72 | 3.8 | 3.0 | -9.0
O=[N+]([O-])/C=C\c1ccc(N2CCCC2)c(F)c1 | . | 38 | . | 0.65 | 1.6 | 3.3 | .
O=C(CN1CCOCCOCCN(CC(=O)Nc2ccccc2)CCOCC1)Nc1ccccc1 | . | 5 | . | 0.67 | 1.1 | 2.7 | 1.6
O=C(Nc1ncc(Cc2cccc(C(F)(F)F)c2)s1)C1CCCO1 (stereo unspecified) | . | 2 | i | 0.65 | 0.8 | 2.2 | -3.1
Cc1cc(C(=O)CSc2nc(N)cc(N)n2)c(C)n1CCc1ccc(F)cc1 | 1 | -6 | . | 0.71 | 1.4 | 0.8 | 3.9
COc1cc(-c2nc(-c3ccccc3)c(-c3cccs3)[nH]2)cc(OC)c1O | 98* | 3 | . | 0.71 | -104 | -0.9 | 0.9
COc1ccc(NC(=O)CCN2CCCC(C)C2)cc1 (stereo unspecified) | -3 | -4 | . | 0.7 | -0.2 | -0.8 | -0.3
Cc1ccc(OCC(=O)NNC(=O)C2CCN(c3nc(C)cc(C)n3)CC2)cc1 | -5 | -3 | i | 0.71 | 1.3 | -0.3 | -2.8
Cc1ccc(CSc2nnc(-c3cccnc3)o2)cc1 | -4 | -6 | . | 0.65 | 0.8 | -0.7 | 0.2
COc1ccccc1C(=O)COC(=O)CCNS(=O)(=O)c1ccc(C)c(C)c1 | 3 | 2 | i | 0.66 | 0.0 | -0.9 | -4.9
CC(C)(C)c1ccc(NC(=O)COC(=O)c2ccc([N+](=O)[O-])s2)cc1 | . | 3 | . | 0.69 | 2.7 | 1.2 | 3.1
COc1ccc(CCCCCCOCc2ccccc2)cc1 | -5 | -5 | i | 0.64 | 0.4 | -2.8 | -0.9
O=C(NCc1ccco1)c1ccc(Cl)c(S(=O)(=O)N2CCc3ccccc32)c1 | 15 | 9 | i | 0.73 | 5.4 | -1.9 | -0.1
CC(C)(C)c1csc(NC(=O)Nc2ccccc2)n1 | . | 11 | i | 0.7 | -0.6 | 0.6 | 1.3
CCC(C)C(NS(=O)(=O)c1ccc(C)cc1)C(=O)NCCCN1CCOCC1 (stereo unspecified) | -1 | -1 | i | 0.63 | -1.7 | -2.0 | 2.7
O=C(NNC(=O)C1[C@H]2CCCC[C@@H]12)Nc1cccc2ccccc12 (stereo partly specified) | -4 | 5 | i | 0.72 | 2.2 | -0.2 | -7.2
COCCn1c(=O)[nH]c2cc(C(=O)NCC3CCCO3)ccc2c1=O (stereo unspecified) | -11 | 4 | . | 0.69 | -20 | -2.2 | -1.0
CC(=O)Nc1ccc(NC(=O)Cn2cnc3c(nnn3Cc3ccc(F)cc3)c2=O)cc1 | 3 | -5 | i | 0.69 | 0.4 | -4.4 | 1.0
Cc1c(C(=O)Nc2ccc(Br)cc2)cnn1C | 3 | 0 | . | 0.69 | 0.0 | 1.4 | 0.9
COc1ccccc1/C=N/NC(=O)c1ccc(NC(=O)c2ccccc2Br)cc1 | 0 | -16 | i | . | . | 1.2 | 11
Cc1ccc(N2CC(=O)N(CC(=O)O)C2=O)cc1 | -3 | 7 | i | 0.7 | 0.5 | -1.8 | -0.9
O=C(CCc1nc(-c2ccccn2)no1)NCc1ccc2c(c1)OCO2 | -5 | -7 | i | 0.64 | -1.3 | -3.3 | -0.2
Cc1cc(OC(C)C(=O)Nc2cccnc2)ccc1Cl (stereo unspecified) | . | 1 | i | 0.68 | 1.2 | 0.1 | 2.5
CSc1nsc(/C=C/Nc2cccc(Cl)c2)c1C#N | -22 | 6 | . | . | -4.1 | 40* | -0.8
CC(NS(=O)(=O)c1ccc([N+](=O)[O-])cc1)C(=O)NN (stereo unspecified) | -13 | 32 | i | 0.65 | 2.9 | -0.6 | -2.8
COc1ccc(S(=O)(=O)/N=C2/NC(=O)/C(=C/c3ccco3)S2)cc1 | 99* | -6 | + | 0.64 | 12 | -13 | 1.4
CCN(CC)c1ccc(C(=O)OCc2cc(=O)oc3cc(O)ccc23)cc1 | 0 | 29 | . | 0.76 | -18 | 3.9 | -1.3
CCNc1nc(NC(C)(C)C)nc(N2CCCC2)n1 | -2 | 10 | . | 0.6 | 1.4 | 3.7 | 0.4
CSc1nc2sc3c(c2c(=O)n1C)CCC3 | -6 | -1 | i | 0.65 | 4.2 | 3.1 | 3.5
COc1ccc(-c2nc3ccccc3c(=O)n2NC(=S)N(C)C)cc1 | . | 5 | . | 0.68 | 3.6 | 2.2 | .
N#CC(C#N)=C(N)/C(C#N)=C/c1cc(O)c(O)c(O)c1 | 96* | 5 | i | . | . | 28 | -10
C=CCNC(=S)N/N=C/c1ccc(OCc2ccccc2Cl)cc1 | -5 | 7 | . | . | . | -4.1 | -1.4
CS(=O)(=O)c1cccc(-c2nnc(NC(=O)c3ccc(S(=O)(=O)N4CCCC4)cc3)o2)c1 | -6 | -9 | i | 0.67 | 3.1 | 1.3 | 3.4
Cn1c(=O)n(C)c2cc(S(=O)(=O)NCCO)ccc21 | -3 | -3 | i | 0.67 | 1.4 | -1.9 | 3.0
O=C(CCC(=O)Nc1ccc(Br)cc1)N/N=C/c1ccc(O)cc1 | 20 | -1 | i | . | . | 2.4 | -0.6
COc1ccccc1-n1cnc2cc(NCc3ccco3)ccc21 | 50 | 35 | . | . | . | 1.6 | -6.3
O=C(NCCCN1CCCCC1)C1CCCN(c2ncnc3c2nc2n3CCCCC2)C1 (stereo unspecified) | 1 | -9 | i | 0.7 | 2.1 | -0.1 | -0.1
CC(=O)N/N=C\c1ccccc1OC/C=C/c1ccccc1 | -13 | -1 | i | . | . | -0.7 | 1.1
Cc1cccn2c(=O)c3cc(C(=O)NCC4CCCO4)c(=N)n(C4CCCCC4)c3nc12 (stereo unspecified) | 0 | -13 | i | 0.66 | i | 2.2 | -1.1
COC(=O)c1ccc(OC(=O)c2nn(C)cc2Cl)c(OC)c1 | . | -2 | . | 0.71 | 1.6 | 3.3 | 1.8
CCOC(=O)c1ccccc1NC(=O)CSc1nnc(Cc2cccn2C)n1-c1ccc(F)cc1 | 35 | -3 | . | 0.73 | 4.9 | -3.5 | 3.2
COc1ccc(S(=O)(=O)N2CCN(c3cnccn3)CC2)cc1OC | -2 | -6 | i | 0.71 | -6.0 | -0.3 | 2.4
O=C(CCCc1ccccc1)NCc1ccccn1 | . | -1 | . | 0.67 | 3.2 | 2.8 | -0.2
C/C(=N\NC(N)=S)C1(C)CC2(CC(C)(C)OC2=O)C(=O)O1 (stereo unspecified) | -9 | -4 | i | . | . | -0.9 | -1.4
CCN(CC(=O)Nc1cc(Cl)ccc1C)C(=O)c1ccc2c(c1)NC(=O)C(C)S2 (stereo unspecified) | 2 | 0 | i | 0.71 | -0.7 | -0.1 | 2.1
O=C(NC1CCN(Cc2ccccc2)CC1)c1ccc(Cn2c(=S)[nH]c3ccc(N4CCOCC4)cc3c2=O)cc1 | -24 | 21 | i | 0.72 | -46 | 3.5 | -4.8

Screening results as filed in PubChem BioAssay.
